UUG fidelity: modulators of start codon recognition fidelity in yeast; S. cerevisiae UUG-firefly luciferase reporter, luminescence/redox ratio; activity score, % at 18.7 µM; hit rate 0.13% among 350,000; AID 602363;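 active = replicate mean at a twofold rise or more, about +100% in these data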;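 also: firefly luciferase made from a UUG start codon reports start codon fidelity; reporter light over untreated wells divided by growth signal over untreated wells; some hits fall short of that in this replicate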
CSC inhib: blocks cancer stem cells; inhibition, % at 7.5 µM; AID 2717; cancer stem cell-like cells viability, luminescence; hit rate 1.1% among 300,000;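 active = mean at 75% or more and at least half the replicates too; inconclusive = mean and replicates disagree; tested in HMLE shEcad cells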;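 also: 0% = median of negative and 100% = median of positive control wells; the first replicate is given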
Env fusion inh: HIV envelope-mediated fusion inhibition; HeLa-JRFL Env/CEM21 cell fusion, luciferase; inhibition, % at 12.3 µM; hit rate 1.1% among 360,000; AID 651610;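 active = mean replicate inhibition score of at least 50 and every replicate individually at or above 50; inconclusive = only one of the two criteria met; inactive = mean below 50 and not all replicates reaching 50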;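 also: 0% = plate neutral controls and 100% = maraviroc near 300 nM; one replicate is shown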
MT1-MMP act inh: inhibitors of human MT1-MMP activation; P50281; HT1080 RFP-PRO-GFP cells, GFP/RFP ratio fluorescence, overnight; percent of plate control window, DMSO zero; GFP/RFP ratio change, % at 20 µM; hit rate 0.061% among 360,000;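 active = GFP/RFP ratio change of at least 30% with cell ATP level not reduced by more than half and red fluorescence within 50% of control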; also: strong numbers were not always called active
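Test system: HT1080 RFP-PRO-GFP cells; Benchmarks: DMSO and RFP-L50D-GFP cell wells; Timing: cells overnight before dosing, compound overnight, 37 °C, 5% CO2; Compound: one 20 µM compound dose with 1% DMSO; Read-out: GFP/RFP fluorescence ratio.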
eIF4H FP inh: inhibitors of RNA binding by human eIF4H; Q15056; eIF4H fluorescence polarization binding assay; inhibition, % at 35 µM; hit rate 0.94% among 290,000;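 active = 50% or more with normal probe brightness, or confirmed in later tests; inconclusive = above 50% with abnormal brightness, or retests that disagree; inactive = below 50% or failed in later tests; about a fifth of its hits are not listed in these tables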;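 also: calls also rest on retests at 20 µM and on dose response follow-up; 0% = protein and probe with vehicle and 100% = probe without protein; strong numbers were not always called active; many hits fall short of the cut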
Rce1 inh: yeast Ras-converting enzyme inhibition; Q03530; yeast membranes, quenched prenylated peptide cleavage fluorescence; calls only; hit rate 0.27% among 290,000;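 active = fall in fluorescence gain of 50% or more versus controls, with final raw signal at or below 3038400; inconclusive = same 50% fall but final raw signal above 3038400; inactive = fall in fluorescence gain under 50%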;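 also: plate controls were neutral control wells for no effect and wells lacking membranes for full effect; tested at 10 µM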
Target sequence (Q03530 whole entry, looked up): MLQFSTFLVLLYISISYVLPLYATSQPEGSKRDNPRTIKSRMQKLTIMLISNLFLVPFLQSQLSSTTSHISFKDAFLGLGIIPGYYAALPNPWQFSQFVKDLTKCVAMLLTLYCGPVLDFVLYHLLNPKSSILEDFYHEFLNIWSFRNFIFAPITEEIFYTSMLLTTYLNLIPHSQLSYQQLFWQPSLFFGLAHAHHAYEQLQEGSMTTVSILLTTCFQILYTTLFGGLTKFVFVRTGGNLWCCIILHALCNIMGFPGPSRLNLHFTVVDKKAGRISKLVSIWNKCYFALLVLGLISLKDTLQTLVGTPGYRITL
PABP polyA inh: PABP-poly(A) binding inhibition; PABP-poly(A) RNA binding, fluorescence polarization; hit rate 1% among 290,000; inhibition, % at 35 µM; P11940;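 active = 50% or more with normal probe brightness, or confirmed in later tests; inconclusive = above 50% with abnormal brightness, or retests that disagree; inactive = below 50% or failed in later tests; about a fifth of its hits are not listed in these tables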;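 also: calls also rest on retests at 20 µM and on dose response follow-up; controls were probe without protein and protein plus probe with vehicle; some compounds called inactive have numbers as strong as hits; many hits fall short of the cut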
eIF4H FP inh retest: further read-out of eIF4H FP inh, marked with its call; inhibition, %; compound at 20 µM; confirmation average;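 mean of two retest wells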
PABP polyA inh retest: also measured in PABP polyA inh; calls as there; inhibition, %; compound at 20 µM; confirmation repeats;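 mean of two retest wells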
MT1-MMP act inh RFP: also measured in MT1-MMP act inh; calls as there; RFP signal change, %; measured here: RFP expression control read;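 0 = vehicle wells; hits needed this value within 50% of zero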
Starred values were filed as active, the others as inactive; i = inactive; ? = inconclusive; · = not tested or not shown. The order is random (roughly 3% active in at least one column).

SMILES	UUG fidelity	CSC inhib	Env fusion inh	MT1-MMP act inh	MT1-MMP act inh RFP	eIF4H FP inh	Rce1 inh	PABP polyA inh	others
CCOC(=O)c1c(NC(=O)CSc2nnnn2-c2ccccc2OCC)sc2c1CC(C)(C)NC2(C)C	3	56	-10	-7	-11	·	i	·
CCCN(Cc1cc2cc(C)ccc2[nH]c1=O)S(C)(=O)=O	-6	-28	4	5	0	2	i	0
O=C(Cn1cnc2ccccc21)N1CCN(S(=O)(=O)c2ccccc2)CC1	·	-10	7	4	-4	-2	i	-2
CCOc1ccc(C(=O)N(CN2CCCC2=O)c2ccccc2)cc1	-11	-6	18	3	1	5	i	5
Clc1ccccc1OCc1nnc(-c2ccccc2Br)o1	-6	·	·	4	0	-3	i	4
O=C(Nc1ccc(S(=O)(=O)N2CCCC2)cc1)c1ccc(CN2CCc3ccccc3C2)cc1	·	·	?	-4	-25	-7	i	-7
COc1cc(OC)cc(C(=O)Oc2c(CN3CCOCC3)cc(Cl)c3cccnc23)c1	-5	33	-14	3	4	0	·	5
CC(C)C(N)c1csc(Nc2ccc(C(=O)c3ccccc3)cc2)n1 (stereo not drawn)	-39	·	-35	-8	-4	·	·	·
Cc1nn(CCCC(=O)NCCc2ccccc2)c(C)c1[N+](=O)[O-]	·	1	8	3	-3	-12	i	10
COc1ccc(-c2nc3ncccn3c2Nc2ccccc2)cc1	·	-1	-23	3	3	28	i	0
Cc1cccc(CN2CCN(C(=O)CCc3nnc(C4CCCCC4)o3)CC2)c1	-25	5	10	5	8	-2	i	7
Cc1ccc(NC(=O)NNC(=O)C2CCN(Cc3ccc(F)cc3Cl)CC2)cc1	·	10	8	2	-2	4	i	-1
CCCCc1nc(C(N)=O)c2[nH]c(=O)n(-c3ccc(OC)cc3OC)c2n1	-10	6	·	-5	-1	-33	i	0
Oc1c(-c2cc(-c3ccco3)[nH]n2)ccc2ccccc12	-26	21	-451	0	5	0	i	-1
Cc1nn(Cc2ccccc2Cl)c(C)c1NC(=O)CSc1n[nH]c(C)c1[N+](=O)[O-]	·	9	·	·	·	8	i	2
CC1(C)Oc2ccc3ccc(=O)oc3c2/C(=C/N)C1=O	7	·	-220	-1	-2	-10	i	-2
Nc1[nH]nc2c1NN(c1ccc(Cl)cc1Cl)N2	·	38	-22	-5	0	-4	i	?
CCCCNC(=O)c1nc(C2CCN(S(=O)(=O)c3ccccc3)CC2)oc1-c1cccc(C(F)(F)F)c1	-17	·	7	0	-7	·	·	·
N#Cc1cc2sc3nnc(-c4ccncc4)n3c2cc1C#N	-12	-14	·	-6	-4	-4	i	2
O=C(CC1C(=O)NCCN1Cc1cccc(Oc2ccccc2)c1)NCCc1cnccn1 (stereo not drawn)	11	-6	7	-4	1	19	i	9
CCOC(=O)c1c(NC(=O)CSc2nnc(-c3ccncc3)n2Cc2ccco2)sc(C)c1C	-9	-3	·	-4	-5	-9	i	-7
COc1ccc(C(=O)Nc2ccc(S(=O)(=O)N3CCOCC3)cc2)cc1OC	-4	·	·	0	1	6	i	-1
CC(=O)N(CC(=O)O)c1ccccc1C(=O)O	-13	1	·	0	1	-12	i	-10
Cc1c(OCC(=O)NC(Cc2ccc(Cl)cc2)C(=O)O)ccc2c3c(c(=O)oc12)CCCC3 (stereo not drawn)	-8	-5	·	7	9	-7	i	12
O=[N+]([O-])c1ccc2nc(-c3ccc(Cl)cc3)n(OCc3ccccc3)c2c1	-12	28	-170	3	-10	-14	i	5
N/C(=N\OC(=O)COc1ccc([N+](=O)[O-])cc1)c1ccncc1	·	17	-17	-1	3	4	i	-11
Cc1oc(-c2cc3c(cc2Cl)OCO3)nc1CN1CCCC(C(=O)N2CCOCC2)C1 (stereo not drawn)	·	16	7	-1	0	2	·	4
NNC(=O)CNC(c1ccccc1)c1cc(Br)ccc1NC(=O)c1cccc(Cl)c1 (stereo not drawn)	-9	8	17	-3	0	-9	i	-1
COCCn1c(SCC(=O)Nc2ccc(C(C)=O)cc2)nc2c([nH]c3ccccc32)c1=O	1	-2	-24	0	6	1	i	7
COC(=O)[C@H](Cc1ccccc1)NC(=O)NCc1ccc(S(N)(=O)=O)cc1	·	-5	-26	1	-1	0	i	1
CC(C)(C)c1ccc(C(CC(=O)O)NC(=O)Cc2ccc(F)cc2)cc1 (stereo not drawn)	·	1	·	·	·	2	i	-6
Oc1cccnc1SCc1ccccc1	-6	7	·	4	0	·	i	·
COC(=O)c1ccc(/C=C/c2c(-c3ccc(OC)cc3)oc3ccccc23)cc1	7	109*	8	1	-4	-3	i	-9
CCc1nc(SCC(=O)c2ccc(C)c(C)c2)n[nH]1	-26	-8	-7	6	0	3	i	5
CCn1cnc2sc(C(=O)Oc3cccc(C)c3)c(C)c2c1=O	-18	-13	-52	9	0	-8	i	5
C/C(=N\Nc1ncc(Cl)cc1Cl)c1ccc(S(=O)(=O)NCc2ccco2)cc1	·	5	-17	-4	-4	-4	i	-11
CC(C)(C)NC(=O)CSc1nc2scc(-c3ccccc3)c2c(=O)[nH]1	·	-3	8	2	-3	-2	i	-8
O=C1O/C(=C/c2ccccc2)N=C1c1ccccc1	3	-8	-30	0	2	-7	i	4
C/C=C/C(=O)OCC(=O)Nc1cc(-c2cc(C)c(C)cc2C)nn1-c1ccccc1	-18	5	20	-6	3	4	i	-6
CCCCCCc1cc2cc(-c3nnc(-c4ccccc4O)o3)c(=O)oc2cc1O	-2	109*	6	-475	-28	?	i	?
O=C(NCc1ccccc1Cl)C1CCCN(S(=O)(=O)c2cccc3nsnc23)C1 (stereo not drawn)	-19	-6	·	1	-1	-7	i	-12
CCc1ccc(OCCNC(=O)c2cccs2)cc1	-12	-10	-35	-3	-7	-6	i	7
CCOc1ncccc1C(=O)OCc1csc(CC(=O)Nc2ccccc2C)n1	-12	·	8	-2	-1	·	·	·
CC(OC(=O)c1ncc(Cl)c(Cl)c1Cl)C(=O)NC1(C#N)CCCCC1 (stereo not drawn)	11	-4	6	-3	-3	·	i	·
CCOC(=O)/C(=C/C=C/c1ccccc1)NC(=O)c1ccccc1	·	-14	10	-1	-4	-2	i	6
Cc1ccc(S(=O)(=O)NCCC(=O)NNC(=O)c2ccccc2O)cc1C	-3	20	·	4	3	·	i	·
C=C1CCN(Cc2ccccc2)S(=O)(=O)c2ccccc21	-9	0	-5	0	-5	-2	i	0
Cc1c(NC(=O)c2ccc(F)c(S(=O)(=O)N3CCOCC3)c2)c(=O)n(-c2ccccc2)n1C	-10	-3	·	0	-4	-7	i	2
CCc1cccc2c(=O)c(C(=O)NCCCOC)c[nH]c12	·	-1	4	2	0	-1	i	-5
CC1(C)CC(=O)C(CO)=C(c2cccc3ccccc23)C1=O	3	5	20	3	6	·	·	·
CCCN1CCN(C(=O)c2ccc3nc(CC)c(CC)nc3c2)CC1	-1	-10	-10	1	4	2	i	18
CCOC(=O)c1cc(NC(=O)c2ccc(C)cc2)c(=O)oc1C(F)(F)F	·	-3	-1	-2	1	28	i	14
Cc1ccc(C(=O)OCC(=O)NCCc2ccccc2)cc1C	2	-7	·	1	2	·	·	·
CCOC(=O)CSC1=N/C(=C\c2ccc(OC)c(OC)c2)C(=O)N1C	-13	-6	·	5	3	1	i	-4
CC(=O)C(C)n1cnc2scc(-c3ccc(C)cc3)c2c1=O (stereo not drawn)	4	-5	2	3	-2	-3	i	-4
COc1ccc(/C=N/NC(=O)Cc2n[nH]c(=O)[nH]c2=O)cc1	-7	0	-4	5	13	-5	i	-9
O=C(COC(=O)C1(c2cccc(F)c2)CCCC1)NCc1cccs1	-5	-8	19	2	-1	-2	i	0
C=CCn1c(COc2ccccc2F)nnc1SCC(=O)NC(=O)NCc1ccco1	-11	4	·	-1	-1	76	i	17	eIF4H FP inh retest=38;PABP polyA inh retest=28
CC(C)NC(=O)CSc1nnc(-c2ccc(F)cc2)c2ccccc12	·	-11	2	-1	1	9	i	10
CCOC(=O)c1c(NC(=O)CSc2nnc(-c3ccc(OC)cc3)o2)sc2c1CCC2	·	4	·	0	4	·	i	·

The list goes on.
SMILES	UUG fidelity	CSC inhib	Env fusion inh	MT1-MMP act inh	MT1-MMP act inh RFP	eIF4H FP inh	Rce1 inh	PABP polyA inh	others
C#CCOCCOCCOCCNc1nc(N2CCN(C(=O)C([C@@H](C)CC)n3cc(C(N)Cc4ccc(O)cc4)nn3)CC2)nc(N2CCN(C(=O)[C@H](CCC(=O)O)n3cc(C(N)CC(C)C)nn3)CC2)n1 (stereo partly drawn)	-12	4	8	5	1	5	i	4
Cc1cc(CN2C(=O)c3ccccc3C2=O)cc(N2CCOCC2)c1	-24	-12	·	7	-7	8	·	-9
CC[N+](CC)(CC)C/C=C/CN1CCCCC1	·	0	2	2	3	9	i	-1
CC1(C)NC(C)(C)/C(=C\c2cccs2)C(=O)C1=O	·	·	-9	1	-5	-9	i	7
O=C(CSc1ncn[nH]1)NC1CC2CCC1C2 (stereo not drawn)	-15	·	·	-1	3	-4	i	-6
Cc1cc(Cl)c2oc(C(=O)NCCN3CCOC3=O)c(C)c2c1	1	2	4	2	1	-14	i	5
CC1CC(NC2=NCCS2)CC(C)(C)C1 (stereo not drawn)	·	-1	7	3	-5	1	i	5
CCc1ccc2[nH]c(O)c(N=NC3=NC(=O)CS3)c2c1	-4	-9	7	11	-1	6	i	4
CCCCCN(C(=O)CCC(=O)OCCOc1ccccc1)c1c(N)n(CCCC)c(=O)[nH]c1=O	-8	-7	7	-3	-1	·	i	·
Cn1c(N)c(C(=O)COC(=O)c2cccc(S(=O)(=O)NCc3ccccc3)c2)c(=O)n(C)c1=O	6	10	·	4	1	·	·	·
O=C(Oc1ccc2ccc(=O)oc2c1)c1ccccc1	-11	-16	11	-2	-3	3	i	-3
Cc1cc(C)c(OCC(=O)OCC(=O)NC2CCCCCCC2)c(C)c1	27	5	10	4	1	-2	i	-4
O=C(N/N=C/c1ccc(O)c(Br)c1)c1cc2c(ccc3ccccc32)o1	-8	19	·	2	-2	-7	i	-1
Cc1ccc(C(=O)OC(C)C(=O)Nc2ccc(S(N)(=O)=O)cc2)cc1S(=O)(=O)N1CCOCC1 (stereo not drawn)	17	-4	-6	-1	3	·	i	·
COCCn1nnnc1C(c1ccccc1)N1CCN(Cc2ccc3c(c2)OCO3)CC1 (stereo not drawn)	7	-3	·	5	2	63	i	17	eIF4H FP inh retest=-5;PABP polyA inh retest=4
C=CCNC(=O)C1CCN(S(=O)(=O)CC)CC1	-29	5	·	-6	4	-15	i	-3
Cc1ccc(S(=O)(=O)Nc2nc(C)cc(NN)n2)cc1	·	·	-28	1	8	-3	i	-7
COc1ccccc1Oc1ccc(S(=O)(=O)N2CCN(C)CC2)cc1	·	-14	21	3	-2	1	i	-16
CCn1c(N2CCN(C(=O)c3ccco3)CC2)nc2ccccc21	2	-13	0	-5	1	-2	i	-14

4 neighbouring records already listed, quoted:
SMILES	UUG fidelity	CSC inhib	Env fusion inh	MT1-MMP act inh	MT1-MMP act inh RFP	eIF4H FP inh	Rce1 inh	PABP polyA inh	others
COCCn1nnnc1C(c1ccccc1)N1CCN(Cc2ccc3c(c2)OCO3)CC1 (stereo not drawn)	7	-3	·	5	2	63	i	17	eIF4H FP inh retest=-5;PABP polyA inh retest=4
C=CCNC(=O)C1CCN(S(=O)(=O)CC)CC1	-29	5	·	-6	4	-15	i	-3
Cc1ccc(S(=O)(=O)Nc2nc(C)cc(NN)n2)cc1	·	·	-28	1	8	-3	i	-7
COc1ccccc1Oc1ccc(S(=O)(=O)N2CCN(C)CC2)cc1	·	-14	21	3	-2	1	i	-16
